BJeLR viability: kills HRASV12-expressing BJeLR cells; BJeLR (HRASV12) viability, CellTiter-Glo ATP luminescence, 48 h; reference of the scale not given here; inhibition, % (test concentration not listed); 0.17% of 300,000 active; AID 1554;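 active = replicate mean above 50%; inconclusive = above 50% but judged a plate artefact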;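 also: 50 nL library stock added to about 25 µL; numbers are from one replicate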
RN4220 kill: kills Staphylococcus aureus RN4220; 0.33% of 330,000 active; AID 1259311; inhibition, % (no concentration beside the values); S. aureus RN4220 growth, OD600, 16 h;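 active = z-score of -3 or lower and OD600 up to 0.18 on both plates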;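 also: plate controls were untreated cells for no effect and reference antibiotic for full effect; stock transfer was 100 nL into about 80 µL; one replicate is shown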
ugtP null kill: growth inhibition of S. aureus ugtP deletion strain | S. aureus RN4220 ugtP deletion, OD600 growth, 16 h; some inactives read as strong as hits | growth inhibition, % (test concentration not listed) | 0.54% of 330,000 active | AID 1259309;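 active = z-score under -3 and OD600 up to 0.15 on both plates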;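 also: plate controls were untreated wells for no effect and antibiotic for full effect; wells of about 80 µL received 100 nL stock; the first replicate is given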
PrP 5UTR inh: inhibition of PrP 5' UTR reporter expression; 0.35% of 340,000 active; inhibition, % (test concentration not listed); cell-based PrP 5' UTR mRNA reporter, plate reader;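 active = every replicate at 50% or more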;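 also: 0 = median of the neutral control wells; tested in H4 reporter cells; numbers are from one replicate; inactives centre near -14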
Autofluor counter: flagged as autofluorescent in microsphere protease counterscreen; compound autofluorescence counterscreen, microsphere flow cytometry; active compounds read high; fluorescence intensity (test concentration not listed); 3.1% of 360,000 active;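 active = at least 3 SD above the mean of all compounds, about 16000 in these data; inconclusive = too few beads counted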;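 also: 100 nL of 1 mM stock went into each well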
Mtb hypoxia rep: inhibitors of hypoxia-regulated fluorescent reporter in Mycobacterium tuberculosis. 0.1% of 300,000 active. M. tuberculosis hypoxia-regulated fluorescent reporter, fluorescence. fluorescence inhibition, % (no concentration beside the values);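 active = 35 to 45% if threefold the growth effect, above 45% if 1.5-fold the growth effect; inactive = the rest, general growth blockers included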;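 also: wells of about 50 µL received 100 nL stock; 0% = vehicle wells and 100% = reference inhibitor wells; whole bacteria with a GFP reporter of the hypoxia response; strong numbers were not always called active; many hits fall short of the cut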
Mtb hypoxia rep growth: further read-out of Mtb hypoxia rep, marked with its call; growth inhibition, %; measured here: M. tuberculosis growth (absorbance);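 0% = vehicle and 100% = reference antibiotic; read after six days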
Numbers without * were called inactive; ? = inconclusive; . = not tested or not shown. Rows are unselected; 4% or so of the library scored in one or more.

SMILES	BJeLR viability	RN4220 kill	ugtP null kill	PrP 5UTR inh	Autofluor counter	Mtb hypoxia rep	Mtb hypoxia rep growth
CN1C(=O)NC(c2ccc(O)cc2)C(C(=O)c2cccs2)C1(O)C(F)(F)F (stereo not given)	-1	8.4	1	-23	5609	11	-1
O=C(C(=O)N1CCOCC1)c1cn(CCCOc2ccccc2)c2ccccc12	9	6.7	2	-36	4466	12	14
CCOc1ccccc1NC(=O)c1ccc2nc[nH]c2c1	-9	3.2	-7	-14	5480	3	3
Cc1ncc(C[n+]2csc(CCOC(=O)C34CC5CC(CC(C5)C3)C4)c2C)c(N)n1	2	4.4	7	-23	4862	5	12
Cc1nc2ccccc2cc1C(=O)Nc1ccccc1Cl	2	-0.4	8	-16	4106	-20	-1
CC1CCC(NS(=O)(=O)c2ccc3c(c2)n(C)c(=O)c(=O)n3C)CC1 (stereo not given)	-16	13	-7	-12	22566*	10	8
CCN1CCN(C(=O)c2cnn3c(C(F)F)cc(-c4ccc(C)cc4)nc23)CC1	-8	5.1	-5	-65	8639	16	9
CN(CC(=O)Nc1ccc(Cl)c(C(F)(F)F)c1)C(=O)C1CCCO1 (stereo not given)	.	7.3	0	-10	2716	2	-4
Cc1cc(C)c2[nH]c(=O)c(CN(Cc3cccnc3)C(=S)NCCCN(C)C)cc2c1	3	4.6	20	-16	3608	2	1
O=C(NCC1(O)CCCCC1)C1CCC(=O)N(Cc2ccccc2F)C1 (stereo not given)	4	-1.7	8	-4	5808	3	-2

Limited to Autofluor counter, BJeLR viability and PrP 5UTR inh, for some of the entries so far:
Molecule	Autofluor counter	BJeLR viability	PrP 5UTR inh
Cc1cc(C)c2[nH]c(=O)c(CN(Cc3cccnc3)C(=S)NCCCN(C)C)cc2c1	3608	3	-16
Cc1ncc(C[n+]2csc(CCOC(=O)C34CC5CC(CC(C5)C3)C4)c2C)c(N)n1	4862	2	-23

Going on with the list:
SMILES	BJeLR viability	RN4220 kill	ugtP null kill	PrP 5UTR inh	Autofluor counter	Mtb hypoxia rep	Mtb hypoxia rep growth
CCOC(=O)C1CCN(Cc2cccc(OC)c2)CC1	-1	4.7	4	-1	7422	3	6
COc1cccc(CN2C(=O)C3(C(C#N)=C(N)OC4=C3C(=O)CCC4)c3ccccc32)c1 (stereo not given)	7	7.0	4	-9	11292	-4	-3
O=c1c2c([nH]n1-c1ccccc1)CCSC2	2	-0.9	-3	-4	3928	-12	0
O=C(Nc1cccc(Cl)c1N1CCOCC1)c1ccc(Br)o1	6	3.6	12	-17	6182	12	8
Cc1ccc(C(O)c2ccc(-n3ccnc3)cc2)cc1 (stereo not given)	-6	-3.5	5	-13	3494	14	4
O=C1CCC([N+](=O)[O-])C(c2cc(Br)ccc2F)N1 (stereo not given)	-24	1.1	0	-9	4211	15	7
CCc1ccc(/C=C2\Oc3cc(OC(=O)N4CCOCC4)ccc3C2=O)cc1	-8	4.5	15	-19	2328	14	6
CC(Sc1nnc(COc2ccc([N+](=O)[O-])cc2)n1C)C(=O)O (stereo not given)	-10	3.4	15	-8	4461	7	6
N#Cc1ccc(COC(=O)CCc2c[nH]c3ccccc23)cc1	0	4.4	3	10	4865	11	-1
O=C(NCCCN1CCOCC1)C1CCN(S(=O)(=O)c2c(Cl)cccc2Cl)CC1	5	2.5	3	-13	5928	2	0
O=C(c1ccco1)[C@@H]1[C@@H]2C(=O)N(c3ccc(F)cc3)C(=O)[C@@H]2[C@H]2C=Cc3ccccc3N21	.	-0.8	-1	-20	9398	4	-5
CC(C)(C)n1cnc2cc(NS(=O)(=O)c3ccc(Br)cc3)ccc21	3	-0.5	-12	-12	3563	.	.
O=S1(=O)CCC(S(=O)(=O)N2CCCCCC2)C1 (stereo not given)	0	1.2	-1	-7	5268	.	.
CCCC(c1nnnn1CCc1ccccc1)N1CCN(C2CCCC2)CC1 (stereo not given)	.	-0.5	4	2	4292	.	.
COc1ccc(N(CC(=O)NN=Cc2ccc(OC)c(OC)c2)S(=O)(=O)c2ccccc2)cc1	.	0.4	5	.	.	5	11
CCn1cc([N+](=O)[O-])c(C(=O)Nc2nc3ccc(OC)cc3s2)n1	-1	-0.8	-11	-69	2562	-6	-4
O=C(N/N=C/CCc1ccccc1)c1ccc(CN2c3cccc4cccc(c34)S2(=O)=O)cc1	1	.	.	2	1941	.	.
CCc1c(C)[nH]c2ccc(OC)cc2c1=S	.	-1.7	0	-12	4941	-2	10
Cc1ccc(CNCc2ccccc2Cl)cc1	0	6.4	6	-21	2452	1	7
O=C(CN1C(=O)C2CCCCC2C1=O)Nc1ccccc1N1CCCC1 (stereo not given)	2	3.1	2	-8	4167	3	5
O=C1NCN(c2ccccc2)C12CCN(CCCC(c1ccc(F)cc1)c1ccc(F)cc1)CC2	-14	9.6	54	0	4389	4	10
CCOc1ccc(C2CC(c3ccc(F)cc3)Nc3nc(N)nn32)cc1 (stereo not given)	-3	-2.8	-4	-22	5950	.	.
CCCCCCNc1nc(-c2ccc(OC)cc2)c(CCC(=O)O)s1	1	1.6	4	-6	2448	7	-1
O=C(CN1C(=O)NC(Cc2ccccc2)C1=O)Nc1ccccc1F (stereo not given)	.	0.9	4	-14	8714	-6	2
CC(C)CN1CCN(C(=O)CCc2nnc(Cc3c[nH]c4ccccc34)o2)[C@@H](C)C1=O	-2	10	6	-20	6383	5	2
COc1nc(C)ccc1-c1noc(-c2cccnc2)n1	1	0.0	5	-41	3735	18	13
COc1ccc(S(=O)(=O)N2CCOCC2)cc1NC(=O)CC(C)c1ccccc1 (stereo not given)	.	5.2	2	0	3584	5	3
CCOC(=O)c1c(S(=O)(=O)N2CCN(Cc3ccccc3)CC2)c(C)n(C)c1C	1	-2.1	3	-11	4520	16	12
CCOC(=O)C1=NOC(CN(c2ccccc2)S(=O)(=O)c2ccc(Cl)cc2)C1 (stereo not given)	1	1.5	16	-3	2089	4	7
Cc1ccc2c(c1)CCCN2C(=O)C1CCCO1 (stereo not given)	-15	6.0	-2	-13	22991*	6	12
CCn1c(=O)cc(OCC(=O)Nc2cc(C)ccn2)c2ccccc21	-5	8.4	-5	8	22556*	-1	12
O=C(Nc1cccc(C(=O)N2CCOCC2)c1)c1cccnc1	-3	4.3	9	-14	4863	15	-2
Clc1ccc(OCc2cn3cccnc3n2)c2ncccc12	-5	-0.5	-8	-22	3364	-7	2
C=CCN1C(=O)/C(=C2/Sc3ccccc3N2CCCS(=O)(=O)O)SC1=S	-5	-4.6	5	-3	4172	.	.
CC(=O)N(CCc1cccc(C)c1)Cc1cc2ccc(C)cc2[nH]c1=O	-5	-3.5	-3	-12	3992	6	8
COc1cc2c(cc1OC)CN(C(=O)CN1C(=O)NC3(CCCCC3C)C1=O)CC2 (stereo not given)	.	3.5	5	-17	?	1	1
Cc1ccc(NC(=O)NCc2ccc3c(c2)OCO3)cc1C	-4	-5.4	-5	-52	2192	-1	15
N#Cc1ccc(C=NNC(=O)CCc2ccc(S(=O)(=O)N3CCOCC3)cc2)cc1	.	-0.3	1	.	.	5	8
COc1cc(NC(=O)c2c(F)cccc2F)nc(OC)n1	0	5.2	11	-57	9880	-3	1
COc1ccccc1NS(=O)(=O)c1cccc(NS(=O)(=O)c2cc(C(=O)O)ccc2OC)c1	.	4.8	2	-22	3470	7	9
CC(=O)N1CCN(C(=S)NC(=O)c2ccc(S(=O)(=O)N3CCOCC3)cc2)CC1	-22	1.8	-1	-14	2655	6	3
O=C(Nc1cc(Cl)ccc1N1CCOCC1)c1ccc(F)c(S(=O)(=O)N2CCOCC2)c1	.	0.9	4	-9	2899	-5	-3
Nc1ccccc1-c1ccc([N+](=O)[O-])cc1	.	5.4	2	-25	3772	5	0
N#Cc1cccc(CN2CCCN(Cc3ccc(F)cc3)S2(=O)=O)c1	-2	4.3	-3	2	4294	-8	12
CCN(CC)c1ccc(S(=O)(=O)N2CCOCC2)cc1NC(=O)c1cc(=O)c2ccccc2o1	5	4.9	-4	-14	4564	9	2
CCCNC(=S)N1CCC(C(=O)c2ccc3c(c2)OCCO3)CC1	-10	0.6	8	-22	4287	14	11
COc1cc(/C=C2\SC(=Nc3ccccc3)N(Cc3ccco3)C2=O)ccc1OC(C)C(=O)O (stereo not given)	-3	3.2	-2	-34	1996	0	11
CCN(CC(=O)Nc1sc2c(c1C#N)CCC(C)C2)CC(=O)NC1CCS(=O)(=O)C1 (stereo not given)	9	3.2	3	-27	3948	13	5
COC(=O)c1n[nH]c2ccccc12	2	0.6	-2	-25	4894	.	.
Nc1nc(N)nc(COc2ccccc2)n1	3	3.0	-1	-46	3693	13	3

Entries from the list above that have a Cl atom (8):
SMILES	BJeLR viability	RN4220 kill	ugtP null kill	PrP 5UTR inh	Autofluor counter	Mtb hypoxia rep	Mtb hypoxia rep growth
Cc1nc2ccccc2cc1C(=O)Nc1ccccc1Cl	2	-0.4	8	-16	4106	-20	-1
CN(CC(=O)Nc1ccc(Cl)c(C(F)(F)F)c1)C(=O)C1CCCO1 (stereo not given)	.	7.3	0	-10	2716	2	-4
O=C(Nc1cccc(Cl)c1N1CCOCC1)c1ccc(Br)o1	6	3.6	12	-17	6182	12	8
O=C(NCCCN1CCOCC1)C1CCN(S(=O)(=O)c2c(Cl)cccc2Cl)CC1	5	2.5	3	-13	5928	2	0
Cc1ccc(CNCc2ccccc2Cl)cc1	0	6.4	6	-21	2452	1	7
CCOC(=O)C1=NOC(CN(c2ccccc2)S(=O)(=O)c2ccc(Cl)cc2)C1 (stereo not given)	1	1.5	16	-3	2089	4	7
Clc1ccc(OCc2cn3cccnc3n2)c2ncccc12	-5	-0.5	-8	-22	3364	-7	2
O=C(Nc1cc(Cl)ccc1N1CCOCC1)c1ccc(F)c(S(=O)(=O)N2CCOCC2)c1	.	0.9	4	-9	2899	-5	-3

The results go on:
SMILES	BJeLR viability	RN4220 kill	ugtP null kill	PrP 5UTR inh	Autofluor counter	Mtb hypoxia rep	Mtb hypoxia rep growth
Cc1[nH]c2ccccc2c1C(=O)C(=O)N1CCN(c2ccccc2Cl)CC1	10	73	32	-53	4298	7	3
CCOc1ccc(S(=O)(=O)Nc2nc3ccc(OC)cc3s2)cc1	-3	-1.6	3	-23	2824	.	.
CC(=O)N1c2c(cc(Br)cc2S(=O)(=O)Nc2c(C)n(C)n(-c3ccccc3)c2=O)CC1C (stereo not given)	6	-0.1	0	-11	4821	1	-2
Cc1cc(OCC(=O)N(C)C2CCCCC2)ccc1Cl	-3	2.2	-2	-67	4779	-3	-3
CCOc1ccc(OCCNC(=O)c2cc(C3CC3)nc3c2cnn3C(C)C)cc1	.	-8.5	1	-15	6187	2	-1
COc1cc(OC)cc(C(=O)N[C@H](C(=O)OCn2nnc3ccccc3c2=O)C(C)C)c1	-2	4.6	2	-17	4389	5	8
O=C(CCn1nnc2ccccc2c1=O)NCC1CCC(C(=O)O)CC1 (stereo not given)	-4	0.4	1	-37	24413*	3	7
COc1cc(OC)nc(NC(=O)CSc2nc3ccccc3o2)n1	1	3.3	6	-25	10014	6	0
O=C1CC(N2CCSCC2)C(=O)N1c1cccc(Cl)c1 (stereo not given)	-10	3.2	8	-12	3377	1	-2
C/C(=N\NC(=O)c1ccc(NS(=O)(=O)c2cccs2)cc1)c1cccs1	-4	.	.	-20	4588	.	.
Cc1cc(Nc2ccccc2Cl)n2nnnc2n1	0	1.3	3	-27	2596	.	.
CC12CS(=O)(=O)CC1SC(=S)N2Cc1ccccc1 (stereo not given)	-3	1.2	5	1	3563	6	1
COc1ccc(/C(O)=C2/C(=O)C(=O)N(c3ncccn3)C2c2ccc(OC)c(OC)c2)cc1 (stereo not given)	0	0.1	-2	-17	2751	.	.
Cc1nc(C/C(=N\Nc2ccccc2)c2ccc(O)cc2O)cs1	0	.	.	-20	4402	.	.
